Compound activity as filed in PubChem BioAssay.
ALR H2O2 inh: inhibitors of human ALR sulfhydryl oxidase, primary screen, biochemical, H2O2 detection, HRP-luminol luminescence, single point | hit rate 3.8% among 290,000 | purified ALR, DTT oxidation | inhibition, % (concentration not given with the values) | AID 485317, 2010 | FAD-linked sulfhydryl oxidase ALR (Homo sapiens), P55789;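 active means mean and each replicate at 75% or more; inconclusive means only one of the two met; inactive means neither met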;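 further: stock transfer was 7.5 nL into about 7.5 µL; 0% = neutral wells and 100% = wells with inactivated enzyme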
Target sequence (P55789 whole entry, looked up): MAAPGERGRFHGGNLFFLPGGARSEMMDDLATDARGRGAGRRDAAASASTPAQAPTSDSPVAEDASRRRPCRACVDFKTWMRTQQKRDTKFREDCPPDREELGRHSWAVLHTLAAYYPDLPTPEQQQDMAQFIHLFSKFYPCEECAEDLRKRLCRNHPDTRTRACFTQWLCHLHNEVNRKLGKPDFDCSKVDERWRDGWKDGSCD
T cruzi inh: inhibitors of intracellular T. cruzi growth, primary screen, luminescence, NIH3T3 host cells; T. cruzi beta-gal in NIH3T3, 90 h; inhibition, % (no concentration beside the values); hit rate 1.4% among 300,000; AID 1885, 2009;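 active means mean inhibition across valid replicates above about 55%, limit read from the data; inconclusive means mean below that limit but half or more replicates reach it; inactive means mean below it, under half of replicates reach it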;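 further: signal also drops with host cell toxicity which is not excluded here; 0% = plate median of DMSO wells and 100% = zero luminescence signal; higher percent means less beta-gal luminescence so fewer parasites; stock transfer was 50 nL into about 50 µL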
Ecoli rRNA inh: reduced GFP signal of wild-type E. coli, primary screen, bacterial rRNA inhibitor project, GFP/RFP fluorescence, OD600, single point; GFP signal change (wild-type ribosome), % (test concentration not listed); E. coli WT GFP vs humanized-ribosome RFP mutants, 24 h; hits give low values; DMSO median 0, no signal -100; hit rate 1.6% among 350,000;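 active means significant combined selectivity score with lowered wild-type GFP, culture density cut under 30%, mutant RFP and density less affected; inactive means any of these conditions unmet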; further: one replicate is shown; some compounds called inactive have numbers as strong as hits
Beta cell apopt: inhibitors of cytokine-induced beta cell apoptosis, primary screen, luminescence. protection from apoptosis, % (test concentration not listed). AID 435005, 2010. INS-1E cytokine-induced death, ATP luminescence, 48 h; percent of positive-control rescue, neutral wells zero. hit rate 0.8% among 300,000;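 active means all replicates at 75% or more, or half of them and the mean; inconclusive means half reach 75% but not the mean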;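 further: 0% = cytokine-treated negative control wells and 100% = positive control rescue; higher means more ATP so stronger rescue from cytokine killing; wells of about 40 µL received 100 nL stock; the first replicate is given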
MLL AF4-AF9 inh: inhibitors of AF4 peptide binding to AF9, primary screen, biochemical, AlphaScreen, biotin-AF4 peptide, FLAG-AF9, single point; Protein AF-9 (Homo sapiens), P42568; inhibition, % at 10 µM; hit rate 0.47% among 350,000; AID 651704, 2012;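 active means every replicate reaching a set inhibition limit, whatever the replicate mean, cut at about 25% in these data; inconclusive means mean inhibition reaches that limit but some replicates miss it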;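 further: 0% = plate neutral control median and 100% = total signal loss; the record names both 10 and 1 µM as test concentration; the first replicate is given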
Target sequence (P42568 whole entry, looked up): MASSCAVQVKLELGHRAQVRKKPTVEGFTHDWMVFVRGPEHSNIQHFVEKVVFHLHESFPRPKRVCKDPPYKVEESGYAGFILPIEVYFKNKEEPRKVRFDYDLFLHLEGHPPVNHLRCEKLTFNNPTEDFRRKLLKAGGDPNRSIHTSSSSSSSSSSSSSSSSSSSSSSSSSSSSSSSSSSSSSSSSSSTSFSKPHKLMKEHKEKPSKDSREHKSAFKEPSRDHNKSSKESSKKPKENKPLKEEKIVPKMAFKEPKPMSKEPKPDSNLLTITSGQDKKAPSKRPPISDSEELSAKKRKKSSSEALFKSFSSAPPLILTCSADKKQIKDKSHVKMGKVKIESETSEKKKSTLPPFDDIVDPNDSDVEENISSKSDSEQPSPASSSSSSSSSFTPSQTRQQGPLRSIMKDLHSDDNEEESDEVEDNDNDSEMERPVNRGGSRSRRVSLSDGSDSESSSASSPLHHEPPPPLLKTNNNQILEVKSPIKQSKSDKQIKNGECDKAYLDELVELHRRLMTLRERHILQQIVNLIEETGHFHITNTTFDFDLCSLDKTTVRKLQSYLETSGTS
RanGTP-Imp inh: inhibitors of RanGTP-importin-beta interaction, primary screen, biochemical, FRET, CFP-Ran, YFP-importin-beta, homogeneous | inhibition, % (no concentration beside the values) | Ran GTPase (GTP-bound) - importin-beta complex | cell-free CFP-Ran/YFP-importin-beta FRET ratio | hit rate 1.1% among 300,000 | AID 2216, 2009;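 active means most replicates above 15%; inconclusive means exactly half above 15%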;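 further: 0% = DMSO wells and 100% = Ran loaded with GDP instead of GTP; wells of about 40 µL received 100 nL stock; the first replicate is given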
Calb FLC: C. albicans growth inhibition with fluconazole, primary screen, CaCi-2 strain, Alamar Blue fluorescence. C. albicans CaCi-2 (fluconazole-resistant clinical isolate) + fluconazole, 48 h. growth inhibition, % (no concentration beside the values). hit rate 0.57% among 300,000. AID 1979, 2009;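 active means most replicates above 75%; inconclusive means exactly half above 75%; inactive means most below 75%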;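 further: all wells also contain fluconazole at 8 µg/ml as a sub-toxic cotreatment; 0% = median of DMSO wells and 100% = median of geldanamycin control wells; wells of about 8 µL received 7.5 nL stock; the first replicate is given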
FGF22 binding: binders of human FGF22 protein, primary screen, FGF22 synaptogenesis inhibitor project, biophysical, thermal shift, single point; Fibroblast growth factor 22 (Homo sapiens), Q9HCT0; recombinant FGF22 thermal shift, SYPRO orange fluorescence; percent of sucrose octasulfate shift, DMSO zero; calls only at 9.99 µM; hit rate 1.5% among 340,000;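 active means melting point raised past a set limit in the mean and every replicate; inconclusive means no clear call; three in four hits are not shown here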
Target sequence (Q9HCT0 whole entry, looked up): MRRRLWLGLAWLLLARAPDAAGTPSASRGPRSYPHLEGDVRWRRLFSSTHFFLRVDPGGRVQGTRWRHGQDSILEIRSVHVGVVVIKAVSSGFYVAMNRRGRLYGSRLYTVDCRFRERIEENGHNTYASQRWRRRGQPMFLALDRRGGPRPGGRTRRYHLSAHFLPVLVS
Ecoli rRNA inh OD600: also measured in Ecoli rRNA inh; calls as there; OD600 change, %; measured here: OD600 growth;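 optical density of the mix in the first replicate; 0 = DMSO median and -100 = no signal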
Ecoli rRNA inh RFP: recorded beside Ecoli rRNA inh, whose call it bears; RFP signal change, %; measured here: RFP humanized mutant strains;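 first replicate; 0 = DMSO median and -100 = no signal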
The depositor's hits bear a star.

Screening Cc1c(C(=O)Nc2ccc(S(N)(=O)=O)cc2)oc2ccc(Cl)cc12 returned ALR H2O2 inh -2.9, T cruzi inh -3.1, Ecoli rRNA inh 17.1, Beta cell apopt 1.7, MLL AF4-AF9 inh -1.1, RanGTP-Imp inh -3.1, Calb FLC -17.4, FGF22 binding inactive, Ecoli rRNA inh OD600 22.1 and Ecoli rRNA inh RFP -0.2.
O=C(CN1c2ccccc2Sc2ccccc21)NNC(=O)Nc1cccc(Cl)c1 was read as ALR H2O2 inh -8.5, T cruzi inh -6.7, Beta cell apopt inconclusive, MLL AF4-AF9 inh 1.6, RanGTP-Imp inh -2.8, Calb FLC 1.4 and FGF22 binding inactive.
O=C(/C=C\Nc1cccc(F)c1)c1ccc2c(c1)OCO2 was read as ALR H2O2 inh -7.6, T cruzi inh 0.6, Beta cell apopt -16.2, RanGTP-Imp inh 4.9 and Calb FLC -25.6.
`CCOC(=O)[C@H]1[C@H]2COc3ccc(Cl)cc3[C@@H]2N2C(=O)CN(Cc3ccc(OC)cc3)C(=O)[C@@]12C` gave ALR H2O2 inh 1.9, Ecoli rRNA inh -4.2, Beta cell apopt -2.3, MLL AF4-AF9 inh -0.9, FGF22 binding inactive, Ecoli rRNA inh OD600 -10.5 and Ecoli rRNA inh RFP 6.8.
For CC(=O)N/C(=N/c1nc(C)cc(C)n1)Nc1cccc(C)c1C the results were ALR H2O2 inh -30.8, T cruzi inh -5.2, Ecoli rRNA inh 5.0, Beta cell apopt -6.4, MLL AF4-AF9 inh -1.1, RanGTP-Imp inh -3.4, Calb FLC -6.5, FGF22 binding inactive, Ecoli rRNA inh OD600 8.1 and Ecoli rRNA inh RFP -1.0.
CC(C)(C)c1ccc(CN2C(=O)c3ccccc3S2(=O)=O)cc1 was read as ALR H2O2 inh -0.6, T cruzi inh 34.6, Ecoli rRNA inh -32.6, Beta cell apopt 8.7, MLL AF4-AF9 inh 0.2, RanGTP-Imp inh -0.2, Calb FLC -3.0, FGF22 binding inactive, Ecoli rRNA inh OD600 -37.5 and Ecoli rRNA inh RFP -13.5.
Screening COc1cc(O)c(C(CCN2CCN(c3ccccc3)CC2)c2cc(OC)c(OC)c(OC)c2)c(OC)c1 (stereo not drawn) returned T cruzi inh 7.3, Ecoli rRNA inh -1.4, Beta cell apopt -2.9, MLL AF4-AF9 inh 19.3, RanGTP-Imp inh -1.6, Calb FLC -6.1, FGF22 binding inactive, Ecoli rRNA inh OD600 -1.6 and Ecoli rRNA inh RFP -1.9.
Screening O=C(NCc1ccccc1)C(c1ccccc1F)N(CC1CCCO1)C(=O)c1ccccn1 (stereo not drawn) returned ALR H2O2 inh 1.2, T cruzi inh -14.7, Ecoli rRNA inh 10.7, Beta cell apopt -6.5, MLL AF4-AF9 inh 1.1, RanGTP-Imp inh 0.0, Calb FLC 2.7, FGF22 binding inactive, Ecoli rRNA inh OD600 9.8 and Ecoli rRNA inh RFP 0.0.
For CC(=O)N1CCN(S(=O)(=O)c2ccc(F)c(Cl)c2)CC1 the results were ALR H2O2 inh -30.9, T cruzi inh -11.9, Ecoli rRNA inh 24.4, Beta cell apopt -7.9, MLL AF4-AF9 inh -5.0, RanGTP-Imp inh -1.4, Calb FLC 40.6, FGF22 binding inactive, Ecoli rRNA inh OD600 23.8 and Ecoli rRNA inh RFP 2.3.
Screening O=c1c2c(-c3cccs3)csc2ncn1/N=C/c1ccc(OC(F)F)cc1 returned ALR H2O2 inh -6.0, T cruzi inh -3.0, Beta cell apopt 0.8, RanGTP-Imp inh -4.4 and Calb FLC -4.2.
`COc1cccc(NC(=O)c2cc(-c3ccc(C)o3)nc3ccccc23)c1` gave ALR H2O2 inh -2.9, T cruzi inh -7.4, Ecoli rRNA inh 12.1, Beta cell apopt 6.7, MLL AF4-AF9 inh 0.0, RanGTP-Imp inh -1.2, Calb FLC -2.4, FGF22 binding inactive, Ecoli rRNA inh OD600 10.8 and Ecoli rRNA inh RFP 1.3.
For Nc1ncncc1-c1ccc2ccccc2c1 the results were ALR H2O2 inh -0.5, T cruzi inh -15.8, Ecoli rRNA inh -31.5*, Beta cell apopt -5.7, MLL AF4-AF9 inh -4.7, RanGTP-Imp inh 5.0, Calb FLC -8.9, FGF22 binding inactive, Ecoli rRNA inh OD600 -10.3* and Ecoli rRNA inh RFP -3.3*.
`CCOc1ncccc1C(=O)Nc1cc(S(=O)(=O)N2CCCCC2)ccc1Cl` gave ALR H2O2 inh -2.2, Ecoli rRNA inh 3.4, Beta cell apopt -2.9, MLL AF4-AF9 inh 6.4, FGF22 binding inactive, Ecoli rRNA inh OD600 3.5 and Ecoli rRNA inh RFP -3.0.
CCOC(=O)N1CCN(C(=O)c2ccc(N(C)S(=O)(=O)c3ccc(C)cc3)cc2)CC1 was read as ALR H2O2 inh -6.3, T cruzi inh -35.1, Ecoli rRNA inh 2.3, Beta cell apopt 4.0, MLL AF4-AF9 inh 0.0, RanGTP-Imp inh 0.0, Calb FLC 4.1, FGF22 binding inactive, Ecoli rRNA inh OD600 3.6 and Ecoli rRNA inh RFP 5.9.
Screening O=C(COC(=O)/C=C/c1ccccc1)Nc1cccnc1Cl returned ALR H2O2 inh 38.0, T cruzi inh -8.3, Ecoli rRNA inh 9.3, Beta cell apopt -10.0, MLL AF4-AF9 inh -25.5, RanGTP-Imp inh 0.2, Calb FLC 1.9, FGF22 binding inactive, Ecoli rRNA inh OD600 15.2 and Ecoli rRNA inh RFP -0.2.
For COC(=O)C1C(O)=C(C(C)=N)C(=O)CC1(C)C (stereo not drawn) the results were ALR H2O2 inh 97.7*, T cruzi inh 4.1, RanGTP-Imp inh -1.7 and Calb FLC -3.3.
Screening O=C(Cc1ccc(Cl)cc1)N1CCN(C(=O)c2ccco2)CC1 returned ALR H2O2 inh -8.3, T cruzi inh -0.2, Beta cell apopt -1.7, RanGTP-Imp inh 3.2 and Calb FLC 8.4.
For COC(OC)c1nc(SCC(=O)Nc2cccc(Cl)c2)ncc1C(=O)O the results were ALR H2O2 inh 98.6*, Ecoli rRNA inh -2.1, Beta cell apopt -14.2, MLL AF4-AF9 inh 1.8, RanGTP-Imp inh 1.1, Calb FLC 2.5, FGF22 binding inactive, Ecoli rRNA inh OD600 -6.6 and Ecoli rRNA inh RFP 0.4.
CCCCN(C)Cc1c(C)[nH]c2c(Cl)cccc2c1=O was read as ALR H2O2 inh -0.1, T cruzi inh 59.8*, Ecoli rRNA inh -2.4, MLL AF4-AF9 inh -54.4, RanGTP-Imp inh -5.7, Calb FLC 3.2, FGF22 binding inactive, Ecoli rRNA inh OD600 10.4 and Ecoli rRNA inh RFP -6.0.
For CCN(CC)c1ccc(C(=O)NNC(=O)c2cccn2C)cc1 the results were ALR H2O2 inh 37.7, T cruzi inh -17.0, Ecoli rRNA inh -12.8, Beta cell apopt 1.3, MLL AF4-AF9 inh -0.4, RanGTP-Imp inh 0.3, Calb FLC 2.3, Ecoli rRNA inh OD600 -1.5 and Ecoli rRNA inh RFP -2.8.
O=C(OCCOc1cccc(Cl)c1)c1cc(S(=O)(=O)N2CCCCC2)ccc1N1CCOCC1 was read as ALR H2O2 inh -6.9, T cruzi inh 64.8*, Ecoli rRNA inh 5.8, Beta cell apopt 71.6, MLL AF4-AF9 inh -1.3, RanGTP-Imp inh 1.9, Calb FLC -0.7, FGF22 binding inactive, Ecoli rRNA inh OD600 7.7 and Ecoli rRNA inh RFP -2.1.
For O=C1COc2ccc(S(=O)(=O)N3CCCCCC3)cc2N1 the results were ALR H2O2 inh -12.2, T cruzi inh -18.8, Ecoli rRNA inh -1.1, Beta cell apopt -5.5, MLL AF4-AF9 inh -1.3, RanGTP-Imp inh -2.4, Calb FLC 43.9, FGF22 binding inactive, Ecoli rRNA inh OD600 5.4 and Ecoli rRNA inh RFP -1.6.
Cc1ccc(NC(=O)C2Oc3ccccc3OC2C)cc1 (stereo not drawn) was read as ALR H2O2 inh 1.7, T cruzi inh -8.3, Ecoli rRNA inh 7.2, Beta cell apopt -1.8, MLL AF4-AF9 inh -2.1, RanGTP-Imp inh 2.2, Calb FLC -12.3, FGF22 binding inactive, Ecoli rRNA inh OD600 -1.4 and Ecoli rRNA inh RFP 0.3.
For CC(C)c1ccc(N(C(=O)c2ccc3c(c2)OCO3)C2C=CS(=O)(=O)C2)cc1 (stereo not drawn) the results were ALR H2O2 inh 32.2, T cruzi inh 0.9, Ecoli rRNA inh 5.3, Beta cell apopt 0.0, MLL AF4-AF9 inh 4.2, RanGTP-Imp inh 6.5, Calb FLC 8.3, FGF22 binding inactive, Ecoli rRNA inh OD600 3.4 and Ecoli rRNA inh RFP -0.5.
`CSCCC(NC(=O)OCc1ccccc1)C(=O)O` (stereo not drawn) gave ALR H2O2 inh -2.1, T cruzi inh -12.3, Beta cell apopt -5.8, RanGTP-Imp inh -1.9 and Calb FLC -8.7.
Screening Cc1ccc(CC(=O)Nc2ccc(F)c([N+](=O)[O-])c2)cc1C returned ALR H2O2 inh 28.0, T cruzi inh -1.7, Ecoli rRNA inh 7.7, Beta cell apopt -12.3, MLL AF4-AF9 inh 3.3, RanGTP-Imp inh 3.6, Calb FLC -22.1, FGF22 binding inactive, Ecoli rRNA inh OD600 -1.0 and Ecoli rRNA inh RFP 3.3.
For O=C(NC1CCCC1)c1cc(=O)[nH]c2ccccc12 the results were ALR H2O2 inh -1.2, T cruzi inh -9.3, Ecoli rRNA inh 3.8, Beta cell apopt -1.9, MLL AF4-AF9 inh 0.2, RanGTP-Imp inh 5.1, Calb FLC -4.1, FGF22 binding inactive, Ecoli rRNA inh OD600 5.9 and Ecoli rRNA inh RFP 1.5.
For Cc1nc(N2CCOCC2)nc(OCCN2CCOCC2)c1[N+](=O)[O-] the results were ALR H2O2 inh -11.6, T cruzi inh 1.9, Ecoli rRNA inh 19.1, Beta cell apopt -5.9, MLL AF4-AF9 inh 3.6, RanGTP-Imp inh 4.3, Calb FLC -9.7, FGF22 binding inactive, Ecoli rRNA inh OD600 22.1 and Ecoli rRNA inh RFP 7.0.
Screening CC1=C(C)CC(C(=O)NCc2cccc(Cl)c2)C(C(=O)O)C1 (stereo not drawn) returned ALR H2O2 inh -3.3, T cruzi inh -3.2, Ecoli rRNA inh -14.6, Beta cell apopt -2.5, MLL AF4-AF9 inh -3.1, RanGTP-Imp inh 4.5, Calb FLC 6.7, FGF22 binding inactive, Ecoli rRNA inh OD600 -15.4 and Ecoli rRNA inh RFP -6.3.
COc1ccc(/C=C2\C(=O)ON=C2c2ccccc2)cc1 was read as ALR H2O2 inh 97.8*, T cruzi inh -7.1, Ecoli rRNA inh 4.6, Beta cell apopt -6.6, MLL AF4-AF9 inh -0.8, RanGTP-Imp inh -4.6, Calb FLC 8.6, FGF22 binding inactive, Ecoli rRNA inh OD600 14.1 and Ecoli rRNA inh RFP 0.8.

This is a subset; count on the stated rates, not on these rows.
